Screening data (PubChem)
PKD1 inh: blocks activity of human protein kinase D1; AID 797; Q15139; inhibition, %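 (about 10 µM by stock and volumes)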; PKD1 kinase fluorescence polarization assay; 200,000 compounds, 0.056% hits;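 active = inhibition of 50% or more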;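 note: controls were vehicle for no effect and a reference inhibitor for full effect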
Insulin prom inh: TRM-6 insulin promoter activity inhibition. TRM-6 cells (human fetal islet line), insulin promoter-eGFP reporter, imaging; reporter expression induced with tamoxifen. 130,000 compounds, 0.9% hits. inhibition, % at 2 µM;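 active = inhibition above the mean plus 3 SD, with well images judged a real hit on visual review, cut at about 60% in these data, passing the limit was not always enough; inconclusive = inhibition over the cutoff but images rejected on review; inactive = inhibition not above the cutoff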
GALR2 agonist: GALR2 (human) receptor agonism. O43603. GALR2-expressing cells, agonist activation read-out. activation, %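 (tested at 5 µM)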. 140,000 compounds, 0.48% hits;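 active = above mean plus 3 SD of all compounds, about 5% in these data, not always enough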;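 note: 0% = vehicle buffer wells and 100% = reference agonist at full effect; tested in CHO reporter cells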
Target sequence (O43603 whole entry, looked up): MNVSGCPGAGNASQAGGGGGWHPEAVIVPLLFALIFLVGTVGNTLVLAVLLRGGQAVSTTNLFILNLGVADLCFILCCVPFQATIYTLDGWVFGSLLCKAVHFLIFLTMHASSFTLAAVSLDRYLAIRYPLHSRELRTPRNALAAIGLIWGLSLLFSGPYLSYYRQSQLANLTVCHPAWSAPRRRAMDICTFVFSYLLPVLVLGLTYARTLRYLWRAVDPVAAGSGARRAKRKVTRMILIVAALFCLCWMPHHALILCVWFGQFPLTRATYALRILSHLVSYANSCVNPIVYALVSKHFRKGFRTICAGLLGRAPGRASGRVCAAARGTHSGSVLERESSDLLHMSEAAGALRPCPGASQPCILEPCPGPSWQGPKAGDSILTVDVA
RGS16-Gao: modulates binding between human RGS16 and Galphao; 220,000 compounds, 0.38% hits; bead-based flow cytometry RGS16-Galphao binding, fluorescence; actives lie on both sides; AID 1441; binding response (% of control), % at 10 µM;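 active = below 25% or above 175%, edge rows of some plates excepted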;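 note: Galphao activated by GDP with aluminum fluoride before binding; 100% = wells without compound and 0% = beads without RGS; some results beyond the cut were filed as inactive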
Target sequence (O15492 whole entry, looked up): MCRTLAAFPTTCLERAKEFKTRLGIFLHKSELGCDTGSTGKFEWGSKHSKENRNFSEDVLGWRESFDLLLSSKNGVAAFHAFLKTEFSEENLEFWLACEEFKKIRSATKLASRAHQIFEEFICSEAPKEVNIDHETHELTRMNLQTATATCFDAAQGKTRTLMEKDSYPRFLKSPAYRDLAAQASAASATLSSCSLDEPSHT
Target sequence (P09471 whole entry, looked up): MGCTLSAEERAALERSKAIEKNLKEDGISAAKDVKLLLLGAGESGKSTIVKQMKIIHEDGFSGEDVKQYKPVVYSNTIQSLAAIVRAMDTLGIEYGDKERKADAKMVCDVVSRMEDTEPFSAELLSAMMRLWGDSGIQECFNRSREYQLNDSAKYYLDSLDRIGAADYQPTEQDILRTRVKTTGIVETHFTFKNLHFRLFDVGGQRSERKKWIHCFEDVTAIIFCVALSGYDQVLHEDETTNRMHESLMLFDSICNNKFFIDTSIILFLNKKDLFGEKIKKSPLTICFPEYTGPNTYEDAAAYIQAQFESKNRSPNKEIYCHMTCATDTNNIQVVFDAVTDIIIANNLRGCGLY
HSV augment: HSV replication enhancement. HSV replication augmentation in cells, fold increase. maximum fold increase. 220,000 compounds, 0.005% hits. AID 1956;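 active = peak rise of 1.5-fold or more in the series; inconclusive = self-fluorescent or not available for retest; tested in PC3 cells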;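 note: first round at 10 µM; read as green reporter fluorescence; hits show the peak of a series up to 25 µM; 1 = signal of infected wells without compound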
Insulin prom inh cell count: second read-out of Insulin prom inh, no call of its own (marks repeat the call); normalized cell count, %; measured here: cell count, toxicity; reference of the scale not given here;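 cells exposed to compound for 48 h; stained nuclei by imaging scaled within each plate; lower means fewer cells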
HSV augment primary fold: further read-out of HSV augment, marked with its call; fold increase; compound at 10 µM; measured here: primary screen fold increase 10 uM; tested in PC3 cells;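 GFP signal in the first replicate; 1 = infected wells without compound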
Starred values were filed as active, the others as inactive; i = inactive; ? = inconclusive; nt = no result given; + = active, no number; [ ] = dose if it differs, or a comment.

Below each compound – HSV augment, Insulin prom inh cell count, PKD1 inh, HSV augment primary fold, GALR2 agonist, RGS16-Gao, Insulin prom inh
[1] COc1cc(CNCc2ccccn2)ccc1OCc1ccc(Cl)cc1Cl
  i, nt, 2, 0.89, 0.6, 98, nt
[2] CN1c2ccccc2Oc2nnc(Cl)cc21
  i, nt, 1, 0.92, nt, 98, nt
[3] COc1ccccc1Nc1cc(C)nc2c(C)ccc([N+](=O)[O-])c12
  i, nt, 1, 1, -1.4, 101, nt
[4] COc1ccc([N+](=O)[O-])cc1NC(=O)CSCc1ccccc1C
  i, 97, -5, 0.91, 0.2, 105, -36
[5] CC(Sc1ccc2ccccc2c1)C(=O)NC(N)=O (centres undefined)
  i, nt, -1, 0.83, nt, 100, nt
[6] Cn1cccc1C(=O)NC(=O)COC(=O)CNC(=O)c1ccc(Cl)cc1Cl
  i, nt, -7, 0.93, nt, 101, nt
[7] CC1CCCCC1NC(=O)CSc1nnc(-c2ccccc2)n1N (centres undefined)
  i, 98, 2, 0.63, 0.0, 102, 19
[8] Cc1nn(CC(=O)c2cccc(Cl)c2)c(C)c1[N+](=O)[O-]
  i, 121, -2, 1.1, nt, 100, 5
[9] CCOC(=O)N/N=C(\C)c1ccc(Br)cc1
  i, 158, -6, 0.85, -1.5, 104, 40
[10] CCOC(=O)N1CCN(c2ncnc3c2[nH]c2ccc(OC)cc23)CC1
  i, 164*, 15, 0.84, 0.7, 101, 91*
[11] O=C(NCC1CCCO1)c1cn(-c2ccccc2)nc1-c1ccccc1 (centres undefined)
  nt, nt, -8, nt, nt, 98, nt
[12] O=C1c2ccccc2NC2(CCCC2)N1O
  i, 98, -2, 0.91, -1.9, 100, 22
[13] CCOC(=O)c1ccc(NC(=O)c2ccc(NS(C)(=O)=O)cc2)cc1
  i, 115, -8, 0.9, -1.4, 112, -23
[14] O=C(N/N=C/c1ccc2c(c1)OCO2)c1ccc(Br)o1
  i, nt, 11, 1.1, 0.0, 98, nt
[15] Oc1ccccc1CN1CCC(C(O)(c2ccccc2)c2ccccc2)CC1
  i, 82, -5, 0.99, 0.2, 104, -79
[16] COc1cc2c(cc1OC)CN(c1nc(CN3CCOCC3)nc3sc4c(c13)CCC(C)C4)CC2 (centres undefined)
  i, 124, -9, 0.86, -0.7, 102, 56
[17] O=C(Nc1ccc(N2CCOCC2)cc1)c1ccc(S(=O)(=O)N2CCCCC2)cc1
  nt, nt, -4, nt, -1.5, 102, nt
[18] CCc1noc(C)c1C(=O)NCCc1ccc(OC)c(OC)c1
  i, 108, -10, 1.1, -1.9, 98, 9
[19] O=C(Nc1ncc(S(=O)(=O)c2ccc([N+](=O)[O-])cc2)s1)c1cccc2ccccc12
  i, 131, -5, 0.91, 3.9, 105, 50
[20] C=CCOC(=O)C1=C(C)NC(SCC(=O)Nc2nccs2)=C(C#N)C1c1cccs1 (centres undefined)
  i, 76, 7, 1, 4.3, 105, -32

Some of these compounds in order of number of heavy atoms, rising.
Below each compound – HSV augment, Insulin prom inh cell count, PKD1 inh, HSV augment primary fold, GALR2 agonist, RGS16-Gao, Insulin prom inh
[13] CCOC(=O)c1ccc(NC(=O)c2ccc(NS(C)(=O)=O)cc2)cc1
  i, 115, -8, 0.9, -1.4, 112, -23
[1] COc1cc(CNCc2ccccn2)ccc1OCc1ccc(Cl)cc1Cl
  i, nt, 2, 0.89, 0.6, 98, nt
[20] C=CCOC(=O)C1=C(C)NC(SCC(=O)Nc2nccs2)=C(C#N)C1c1cccs1 (centres undefined)
  i, 76, 7, 1, 4.3, 105, -32

Remaining list, next part:
Below each compound – HSV augment, Insulin prom inh cell count, PKD1 inh, HSV augment primary fold, GALR2 agonist, RGS16-Gao, Insulin prom inh
[21] O=C(Oc1ccc(N(Cc2cccs2)C2=NS(=O)(=O)c3ccccc32)cc1)c1ccc(Cl)cc1
  i, 83, 14, 1, -0.7, 100, 40
[22] COc1ccc(C2c3ccc(O)cc3Oc3ncn(Cc4ccccc4)c(=N)c32)cc1OC (centres undefined)
  i, nt, nt, 0.67, nt, 108, nt
[23] COC(=O)c1cc(-c2ccc3c(c2)OCO3)nc2ccccc12
  i, 130, -2, 0.94, -0.2, 102, -12
[24] CN(C)CCOC(=O)c1sc2ccccc2c1Cl
  i, 88, 7, 1, nt, 88, -62
[25] Cc1ccc(CNC(=O)CSc2ccsc2[N+](=O)[O-])cc1
  i, nt, -6, 0.99, nt, 102, nt
[26] Cc1c(C(=O)c2ccc(Cl)c([N+](=O)[O-])c2)c2ccccn2c1CCC#N
  i, nt, -5, 0.88, -0.2, 107, nt
[27] CCOC(=O)C(NC(=O)CCl)(Nc1sc(C)c(CC)c1C#N)C(F)(F)F (centres undefined)
  i, 104, -1, 1, -0.6, 97, 26
[28] CCCCNC(=O)Cn1cnc2sc(C(=O)OCC)c(C)c2c1=O
  i, nt, -5, 1.1, -2.8, 101, nt
[29] CC(=O)c1c(C(C)=O)c(C)n(-c2nc(-c3ccc(Br)cc3)c(C)s2)c1C
  i, 52, -1, 0.95, -3.0, 86, 8
[30] Cc1nc(N)nc(COc2ccccc2)n1
  i, nt, nt, 0.94, nt, 101, nt
[31] O=C(Nc1ccccc1O)c1c(O)c2c([nH]c1=O)CCCC2
  i, nt, 0, 0.87, nt, 102, nt
[32] Cc1ccc(CCNC(=O)CN2C(=O)COc3ccccc32)cc1
  i, 112, 2, 1, -2.2, 102, 29
[33] Cc1cc[n+](Cc2ccc([N+](=O)[O-])cc2)cc1
  i, nt, 7, 1, nt, 100, nt
[34] O=C1NC2(CCCC2)C(=O)N1CCS(=O)(=O)Oc1ccccc1
  i, nt, -7, 1.1, nt, 101, nt
[35] Cc1cc(C(=O)CSc2nc3ccccc3c(=O)n2C)c(C)n1Cc1ccc2c(c1)OCO2
  i, 147, 8, 0.96, 0.0, +[activator], 43
[36] CC(=O)NS(=O)(=O)c1ccc(NC(=O)CCC2CCCC2)cc1
  i, 117, -9, 0.97, -0.3, 100, 28
[37] COCCCn1c(C)nnc1-c1cnn(-c2ccccc2)c1N
  i, nt, 6, 0.85, nt, 102, nt
[38] COc1ccc2c(c1)c(C(=O)CN1CCN(Cc3ccccc3)CC1)c(C)n2C
  i, nt, nt, 0.86, nt, 101, nt
[39] CN(C)c1cc[n+](CC(=O)c2ccc(Br)cc2)cc1
  i, 93, 1, 1, nt, 97, 57
[40] Cc1ccc(NC(=O)N2CCCC2c2cccs2)cc1 (centres undefined)
  i, 101, 5, 0.89, nt, 105, 0
[41] O=C1C2C3c4ccccc4C(c4ccccc43)C2C(=O)N1CN1CCOCC1 (centres undefined)
  i, nt, -7, 0.85, -0.1, 104, nt
[42] COc1ccc(CCNC(=O)c2ccc(CN3CCC(Cc4ccccc4)CC3)cc2)cc1
  i, 171, -3, 0.95, -1.5, 102, 9
[43] O=C(COc1ccc(Cl)cc1Cl)N1CCCCCC1
  i, 86, 4, 0.97, 0.2, 101, 12
[44] Cc1cccc(C)c1NS(=O)(=O)c1ccc(OCCNS(C)(=O)=O)cc1
  i, nt, -3, 1.2, nt, 83, nt
[45] CN(CC(=O)NCCc1ccccc1)S(=O)(=O)c1ccc(Br)cc1
  i, 53, 0, 0.74, -1.9, 103, -25
[46] OC(c1ccccc1)C1CN(Cc2ccccc2)CCC1(O)c1ccccc1 (centres undefined)
  i, 64, -1, 0.98, -3.4, 118, -283
[47] O=C1C2C3C=CC(C3)C2C(=O)N1c1ncn[nH]1 (centres undefined)
  i, 125, -11, 1, 0.6, 102, 60
[48] CCCNC(=O)NC1CCCc2ccccc21 (centres undefined)
  i, nt, 4, 0.94, nt, 101, nt
[49] CCOc1ccc(N2C(=O)Nc3ccccc3C2(O)C(=O)N2CCN(c3ccccn3)CC2)cc1 (centres undefined)
  i, nt, 0, 0.98, nt, 93, nt
[50] Cc1sc2ncnc(Sc3nc4ccccc4s3)c2c1C
  i, 136, -3, 0.92, -0.5, 100, 14
[51] Cc1oc(S(=O)(=O)N2CCOCC2)cc1C(=O)Nc1ccc(Cl)cc1
  i, nt, nt, 1.3, nt, 100, nt
[52] N#Cc1cc2c(nc1SCc1cccnc1)CCCCC2
  i, 131, 2, 0.88, -1.3, 99, -119
[53] CCCCCc1cc(=O)oc2c(C(CCN(CC)CC)c3cc(OC)c(OC)c(OC)c3)c(OC)cc(OC)c12 (centres undefined)
  i, nt, nt, 0.54, nt, 98, nt
[54] CCOC(=O)C(C)Sc1nc(-c2ccccc2)nc2ccc(F)cc12 (centres undefined)
  i, 112, -3, 0.98, -1.6, 103, 23
[55] Cc1cc(NC(=O)/C(C#N)=C/c2ccco2)n(-c2ccccc2)n1
  ?, nt, 2, nt, 0.0, 92, nt
[56] O=C(O)/C=C\c1cn(-c2ccccc2)nc1-c1cc2ccccc2o1
  i, nt, 5, 0.76, nt, 106, nt
[57] C=C(C)CSc1nnc(-c2ccc(OC)cc2)n1N
  i, 46, -16, 0.87, -1.1, 44, -40
[58] Cc1csc2c(=O)sc(NC(=O)c3ccc(F)cc3)nc12
  i, nt, nt, 1, nt, 100, nt
[59] Cc1cc(C)nc(Sc2ncnc3c2oc2ccccc23)n1
  i, 163, -4, 0.86, 0.2, 102, 5
[60] CCCCOc1ccc(CN(CCO)CCO)cc1[N+](=O)[O-]
  i, 150, -1, 0.93, -0.3, 125, 6
[61] O=C(O)CCS(=O)(=O)Cc1ccccc1Cl
  i, 147, -1, 0.67, -2.6, 104, 23
[62] CC(CNC(=O)COc1ccccc1)OC(=O)Nc1cccc(Cl)c1 (centres undefined)
  i, 135, -6, 1, -1.9, 87, -30
[63] CCOc1cc(/C=C2/NC(=O)N(CC(=O)OC)C2=O)ccc1OC
  i, nt, 0, 0.95, nt, 104, nt
[64] S=C1NCCc2ccccc2C1c1ccccc1 (centres undefined)
  i, 158, -4, 0.71, -3.8, 104, 52
[65] Cc1cc(OCC(=O)N2CCOCC2)cc2oc(=O)c3ccccc3c12
  i, 47, 0, 0.99, 0.2, 103, -424
[66] O=C(O)CSc1nnc(Cc2cccc3ccccc23)n1-c1cc(C(F)(F)F)cc(C(F)(F)F)c1
  i, nt, nt, 0.93, nt, 96, nt
[67] CC(C)c1nnc(-c2ccc(Cl)cc2)c(N(C)C)n1
  i, nt, -19, 0.97, -2.5, 108, nt
[68] O=C(CSc1ncn[nH]1)c1cc2ccccc2o1
  i, nt, 1, 0.91, nt, 219*[activator], nt
[69] CCOc1ccc(N=Nc2c(C)noc2C)cc1
  i, 88, -1, 0.98, nt, 103, 0
[70] CC1=C(C(=O)OCC(C)C)C(c2ccc(F)cc2)NC(=O)N1 (centres undefined)
  i, nt, -12, 0.93, -1.1, 100, nt
[71] COc1ccc(/C=N/n2cnnc2SCc2ccccc2)cc1
  i, 118, -5, 0.84, -1.8, 105, 19
[72] COC(=O)c1cccc(S(=O)(=O)N2CCC(c3nc4ccccc4o3)CC2)c1
  i, 104, -5, 0.71, -1.5, 201, 44
[73] CC(=O)Nc1ccc(NC(=O)Cc2ccc(F)cc2)cc1
  i, nt, -2, 0.88, nt, 98, nt
[74] CCN(CC)S(=O)(=O)c1ccc(N2CCOCC2)c(NC(=O)c2ccc(F)cc2)c1
  i, 107, 4, 0.63, nt, 101, -8
[75] N#C/C(=C/c1ccc(Sc2nc3ccccc3[nH]2)o1)c1cccc(Br)c1
  i, 159, -2, 0.95, 0.7, 102, 11
[76] Cc1ccc(Cn2ccc(NC(=O)c3cc(-c4ccc5c(c4)OCO5)on3)n2)cc1
  i, 67, 7, 1.2, -1.1, 101, 50
[77] Cc1c(NS(=O)(=O)N2CCCC2)c(=O)n(-c2ccccc2)n1C
  i, nt, -3, 1, -1.9, 96, nt
[78] O=C(O)Cn1c(COc2ccc(Cl)cc2)nc2ccccc21
  i, nt, nt, 0.92, nt, 95, nt
[79] O=S(=O)(NCCNS(=O)(=O)c1ccccc1)c1ccccc1
  i, 110, -4, 0.9, -1.2, 99, -25
[80] Cc1ccc(NC(=O)N2CCC(C(=O)NCC(C)C)CC2)cc1
  i, nt, 13, 0.84, -2.3, 94, nt
[81] CCOC(=O)c1c(C)c(C(=O)NCCc2ccc(S(N)(=O)=O)cc2)c(C)n1CC
  nt, nt, 2, nt, -2.1, 117, nt

Values by screen from above:
PKD1 inh, entries 65–70 → 0, nt, -19, 1, -1, -12
HSV augment, entries 65–70 → i, i, i, i, i, i

The order is random. Share with any hit: about 1.3%.
